High-throughput results as filed in PubChem BioAssay.
VDR inhibitor – vitamin D3 receptor (human) inhibition; P11473; VDR-SRC2-3 peptide fluorescence polarization, 2 h; Potency, µM, without a hit: max response, negative = inhibition, most hits filed as inhibitors; 400,000 compounds, 0.93% hits; active = well fitted inhibition curve with a large enough effect; inconclusive = small, poorly fitted or top-dose-only effect, or another doubt; inactive = no such curve, though single readings can be large or run the other way; note: series mostly up to about 120 µM
Target sequence (P11473 whole entry, looked up): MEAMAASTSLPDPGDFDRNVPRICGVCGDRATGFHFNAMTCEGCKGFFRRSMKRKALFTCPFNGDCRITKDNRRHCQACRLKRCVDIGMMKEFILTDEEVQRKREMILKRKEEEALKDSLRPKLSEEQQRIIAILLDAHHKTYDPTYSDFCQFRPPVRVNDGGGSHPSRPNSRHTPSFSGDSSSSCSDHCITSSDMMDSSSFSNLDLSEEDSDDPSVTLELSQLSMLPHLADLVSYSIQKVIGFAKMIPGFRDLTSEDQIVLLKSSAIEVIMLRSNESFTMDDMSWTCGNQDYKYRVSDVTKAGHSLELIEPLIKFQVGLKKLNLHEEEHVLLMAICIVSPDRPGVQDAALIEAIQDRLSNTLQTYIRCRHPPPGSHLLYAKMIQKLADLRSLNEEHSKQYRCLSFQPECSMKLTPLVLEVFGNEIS
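Fluorescence polarization assay measuring small-molecule disruption of VDR binding to the coregulator peptide SRC2-3. Compounds were pin-transferred (23 nl) into the reagent mix and incubated 2 h at room temperature before reading.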
* hit, by the source's call; ? = inconclusive; & = joins results of further samples; [ ] = another dose, or the depositor's remark. % is set by controls: 0 for no effect and ±100 for the full control effect; potency is the fitted concentration of half-maximal effect. An excerpt, so the mix of outcomes need not match the whole.

cpd	smiles	VDR inhibitor
1	Cc1ccc(NC(=O)CSc2ccccc2NC(=O)c2ccccc2Cl)cc1Cl	-22%
2	COC(=O)c1ccc(/C=C2\N=C(SC)SC2=O)cc1	-3%
3	Cc1cccc(C(=O)Nc2ccc(C(=O)N/N=C/c3ccco3)cc2)c1	-25%
4	Cc1ccc(S(=O)(=O)c2nc(N3CCOCC3)sc2Cl)cc1	18%
5	COc1ccc(CC(=O)N/N=C/c2cc([N+](=O)[O-])cc(Br)c2O)cc1	-5%
6	CNc1oc(-c2ccc(F)cc2)nc1S(=O)(=O)c1ccccc1	1%
7	CC(C)n1cc(/C=N/NC(=O)COc2cccc3cccnc23)c2ccccc21	-18%
8	CCCCOc1ccccc1CC1C(=O)Nc2ccc(Br)cc21 (configuration not stated)	10%
9	COc1ccc(C(=O)Nc2cccc(C)n2)cc1S(=O)(=O)N1CCCc2ccccc21	-3%
10	O=C(Nc1cccnc1)c1ccc(Cl)c(S(=O)(=O)N2CCCC2)c1	-1%
11	O=S(=O)(Cc1ccc(Cl)cc1Cl)c1ccc(Cl)cc1	9%
12	COc1cc(C(=O)Nc2cc(C(F)(F)F)ccc2N2CCOCC2)ccc1O	-30%
13	Cc1ccc(NC(=O)Cn2ncc3c4ccccc4n(Cc4ccccc4)c3c2=O)cc1Cl	0%
14	COc1ccc(S(=O)(=O)N2CCC(C(=O)NCc3cccnc3)CC2)cc1C	1%
15	COC(=O)c1c(C)[nH]c(C(=O)OCC(=O)NC(C)(C)C)c1C	2%

Later entries
cpd	smiles	VDR inhibitor
16	C/C(=N\NC(=O)c1cccs1)c1cccnc1	79µM*
17	CC1Nc2ncnc(N3CCc4ccccc4C3)c2N(Cc2ccc(Br)cc2)C1=O (configuration not stated)	-15%
18	O=c1cc(N2CCOCC2)cnn1-c1ccccc1	-17%
19	Cc1ccc(NC(=O)Cn2c(=O)n(Cc3ccc4c(c3)OCO4)c(=O)c3ccccc32)c(C)c1	-4%
20	O=C(Cn1nc(-c2ccccc2F)ccc1=O)Nc1ccc(S(=O)(=O)N2CCCCCC2)cc1	5%
21	CC(C)Oc1cccc(C(=O)O)c1	0%
22	CS(=O)(=O)N1CCN(c2nc(-c3ccc(F)cc3)cs2)CC1	-2%
23	Cc1ccc(N2CCN(c3nc4c(S(=O)(=O)c5ccc(C)c(C)c5)nnn4c4ccccc34)CC2)c(C)c1	17%
24	CC(C)(C)c1ccc(C(=O)NCC(=O)NNC(=O)c2ccccc2O)cc1	6%
25	CC1CCN(C(=O)c2nc[nH]c2C(=O)OCCNC(=O)OC(C)(C)C)CC1	-9%
26	O/N=C/c1ccccc1OCc1ccc(Cl)cc1	9%
27	O=C(c1cc(N2CCOCC2)c(F)cc1[N+](=O)[O-])N1CCOCC1	17%
28	Cc1ccccc1N=C1Nc2ccccc2CS1	1%
29	CCOc1cc(/C=C2/SC(=O)N(CC(=O)N3CCc4ccccc4C3)C2=O)ccc1OCC(=O)O	-3%
30	CN(C)S(=O)(=O)c1ccc(NC(=O)c2cccnc2)cc1	9%

(continued)
cpd	smiles	VDR inhibitor
31	COc1ccc2nc(NC(C)=O)sc2c1	6%
32	CCN1C(=O)[C@H]2[C@@H](c3ccc(C)cc3)N3C(=O)N(c4ccc(C)cc4)C(=O)[C@@]3(Cc3ccccc3)[C@H]2C1=O	-3%
33	NCC1O[C@@H](OC2C(N)C[C@H](N)[C@@H](O[C@H]3OC(CO)C(O)C(N)C3O)C2O)C(N)C(O)C1O (some centres not stated)	-1%
34	NC(=O)c1c(NC(NC(=O)c2ccco2)(C(F)(F)F)C(F)(F)F)sc2c1CCCC2	-9%
35	Cc1noc(C)c1COC(=O)c1ccccc1Sc1ccccc1C#N	14%
36	COc1ccc(Nc2nc(N)nc(CSC(=S)N3CCCCC3)n2)cc1	10%
37	O=c1c(-c2cccs2)nc2cnc(Oc3ccccc3)nc2n1Cc1cccs1	-1%
38	Cc1ccc(-c2nnc(Oc3ccc(NC(=O)c4ccccc4)cc3)c3ccccc23)cc1	-5%
39	NC(=O)CN1CCN(C(=O)Nc2ccccc2)CC1	-7%
40	O=C1c2oc3ccccc3c(=O)c2C(c2cccc(Cl)c2)N1c1ccccn1 (configuration not stated)	-9%
41	COC(=O)c1c(NC(=O)CSc2nnc(C)c(=O)[nH]2)sc(C)c1C	-2%
42	COCCn1c(-c2cccc(Br)c2)nc2c(c(=O)c3ccccc3n2C)c1=O	-11%
43	Cc1[nH]c2ccccc2c1C(=O)C(=O)N1CCCc2ccccc21	15%
44	Brc1ccc(/C=C/C=N/Nc2nc3ccccc3s2)cc1	-2%
45	CCOC(=O)c1[nH]c(C)c(C(=O)NCc2cccc(OC)c2)c1C	4%

Continuation.
cpd	smiles	VDR inhibitor
46	CC(C)CC(=O)Nc1ccccc1-c1nnn(CC(=O)N2CCOCC2)n1	9%
47	CC(C)CC(=O)Nc1ccc(C(=O)NN2C(=O)c3ccccc3C2=O)cc1	5%
48	Cn1c(=O)c(-c2ccc(Cl)cc2)nc2cncnc21	7%
49	CCCC/C=C1\CCc2c([nH]c3ccccc23)C1=O	9%
50	CCOc1ccc(CCNc2ncnc3onc(C)c23)cc1OCC	18%
51	Cc1ccc(NC(=O)C2CCCN2C(=O)NC2CCCCC2)c(C)c1 (configuration not stated)	-9%
52	CCOC(=O)c1nn(-c2ccc(C)cc2)c(=O)cc1OCC(=O)N1CCN(c2ccccc2)CC1	-3%
53	CC(=O)c1ccc2c(c1)N(C)c1ccccc1S2	-4%
54	CC(C)Cn1c(N)c(C(=O)COC(=O)c2ccccc2C(=O)c2ccccc2)c(=O)n(C)c1=O	38%[activator]
55	COc1cc(Cl)c(NC(=O)CCc2nc3cccnc3n2-c2ccccc2)c(OC)c1	-2%
56	Cc1ccccc1-n1c(=O)cc(N2CCc3ccccc3C2)[nH]c1=O	?
57	Cc1c(O)c(=O)n(-c2ccccc2)n1C	1%&-4%
58	O=C1c2ccccc2S(=O)(=O)c2cc(N3CCN(c4ccccc4)CC3)ccc21	-17%
59	FC(F)(F)c1ccc(Cl)c(-n2c(-c3ccco3)n[nH]c2=S)c1	-15%
60	c1cc(-c2nnc3n2CCCCC3)ccn1	7%

With a hit mark in VDR inhibitor, among the entries above:
cpd	smiles	VDR inhibitor
16	C/C(=N\NC(=O)c1cccs1)c1cccnc1	79µM*

Going on with the list:
cpd	smiles	VDR inhibitor
61	CCCOc1cccc(C2/C(=C(/O)c3ccc(F)cc3)C(=O)C(=O)N2CCN(C)C)c1 (configuration not stated)	-13%
62	CCS(=O)(=O)CCSc1nc2ccccc2s1	9%
63	Nc1ccc(SCCN2C(=O)c3ccccc3C2=O)cc1	1%
64	O=C(c1cc(-c2ccc(F)cc2)nc2ccccc12)N1CCC1	-3%
65	CCOC(=O)CC1C(=O)NCCN1C(=S)NC(=O)c1ccccc1OC (configuration not stated)	-1%
66	CCOC(=O)[C@@H]1[C@H]2COc3ccccc3[C@@H]2N2C(=O)N(c3cccc(F)c3)C(=O)[C@]12C	-10%
67	COC(=O)[C@@H]1C[C@@H]2CC[C@@H](O)C[C@@H]2N1Cc1ccccc1OS(=O)(=O)c1ccc(C)cc1	-7%
68	O=C(NCc1ccc(Cl)cc1)c1cc2ccccc2o1	?
69	CCC(=O)Oc1cccc(C(=O)Nc2ccc(-c3nnc(-c4ccco4)o3)cc2)c1	-9%
70	Cc1ccc(OCC(=O)NNC(=O)Cc2ccc(S(=O)(=O)N3CCOCC3)s2)cc1	-2%
71	CC(C)CNC(=O)CSc1nnc(-c2ccccn2)n1Cc1ccccc1	2%
72	CCCC(=O)Nc1nc(-c2ccccc2)ns1	-1%
73	COc1cc(CN2CCNC(=O)C2CC(=O)NCc2csc(C(C)C)n2)cc(OC)c1 (configuration not stated)	-12%
74	Cc1ccc2cc(/C=N/NC(=O)c3ccccc3O)c(Cl)nc2c1	-7%
75	CN(C)C(=O)c1cc(C(=O)c2ccccc2Cl)c[nH]1	-9%

Continued:
cpd	smiles	VDR inhibitor
76	CC(C)c1ccc(NC(=O)COC(=O)c2ccc(CN3CCCC3=O)cc2)cc1	12%
77	CCN(CC)c1ccc(NC(=O)CSc2n[nH]c(-c3ccco3)n2)cc1	1%
78	CSc1ccccc1Nc1ncnc(N)n1	-1%
79	COc1ccccc1NC(=O)c1cnc(SCC(=O)NCC2CCCO2)n(C)c1=O (configuration not stated)	?
80	O=C(NCc1ccccc1)c1onc(CSc2ccncc2)c1C(=O)NCc1ccccc1	-11%
81	Cc1c(Cl)cccc1NC(=O)CSc1nc(=O)n(Cc2ccco2)c2c1CCC2	4%
82	O=C(CC1C(=O)NCCN1Cc1ccc(-c2ccccc2)cc1)NCc1ccccc1 (configuration not stated)	?
83	CC(C)(C)c1nnc(N/N=C/c2ccc(Br)cc2)n(N)c1=O	-9%
84	CCC(C)c1ccccc1NC(=O)COc1ccc(-c2nnco2)cc1 (configuration not stated)	12%
85	CCOC(=O)C[n+]1ccc2c([nH]c3ccccc32)c1C	-6%
86	COc1ccccc1-c1ccc(/C=C2/C=C(C)OC2=O)o1	?
87	Cc1[nH]nc2c1-c1nc3ccccc3nc1C(C)(C)C2	3%
88	CO[C@]1(NC(=O)C2SC(=C(C(N)=O)C(=O)O)S2)C(=O)N2C(C(=O)O)=C(CSc3nnnn3C)CS[C@H]21 (some centres not stated)	-4%
89	Cc1ccccc1NC(=O)c1ccc2c(c1)OCCO2	1%
90	Cc1ccc(NC(=O)CSc2nnc(CCNC(=O)OC(C)(C)C)o2)c(C)c1	11%

(list continues)
cpd	smiles	VDR inhibitor
91	CCOc1ccc(N(CC(=O)N/N=C/c2ccc(OC(C)C)cc2)S(C)(=O)=O)cc1	12%
92	O=C1CC(c2ccc(O)cc2)Oc2cc(O)cc(O)c21 (configuration not stated)	1%
93	CN(C(=O)c1ccco1)c1nc2c(s1)CCCC2	8%
94	Cc1ccccc1OCC(=O)Nc1ccc(-c2nc3ncccc3o2)cc1	-22%
95	O=C(COC(=O)/C=C/c1ccc(C(F)(F)F)cc1)NCc1ccco1	?
96	CCc1ccc(CNC(=O)c2ccc3nc(SCc4ccc(F)cc4)n(C)c3c2)cc1	-8%
97	CCc1c(C)nc(N2CCN(c3ccc(F)cc3)CC2)[nH]c1=O	-9%
98	Cc1c(CC(=O)NCc2ccc(F)cc2)c(=O)oc2cc(O)c(Cl)cc12	15%
99	COc1cc2c(cc1NC(=O)CN(C)Cc1ccc(OC)c(OC)c1)oc1ccccc12	6%
100	Cc1nc(SCC(=O)N(CC(C)C)C2CCS(=O)(=O)C2)c(C#N)c(C)c1C (configuration not stated)	-9%
101	Cc1ccc(C)c(NC(=O)c2nnn(CC(=O)Nc3cccc(C)c3C)c2N)c1	12%
102	CCCCNC(=O)c1sc2nc(C)cc(COC)c2c1-n1cccc1	-10%
103	CCC(C(=O)N/N=C(\C)c1cccnc1)c1ccccc1 (configuration not stated)	-5%
104	COc1ccc(NC(C)=O)cc1NC(C)c1nc2sc(C)c(C)c2c(=O)[nH]1 (configuration not stated)	-2%
105	CCOC(=O)C1(C/C(C)=N/NC(N)=O)CC(C)(C)OC1=O (configuration not stated)	2%

Reformatted with each value named: entries from further up.
96: CCc1ccc(CNC(=O)c2ccc3nc(SCc4ccc(F)cc4)n(C)c3c2)cc1
  VDR inhibitor = -8%
97: CCc1c(C)nc(N2CCN(c3ccc(F)cc3)CC2)[nH]c1=O
  VDR inhibitor = -9%
98: Cc1c(CC(=O)NCc2ccc(F)cc2)c(=O)oc2cc(O)c(Cl)cc12
  VDR inhibitor = 15%
99: COc1cc2c(cc1NC(=O)CN(C)Cc1ccc(OC)c(OC)c1)oc1ccccc12
  VDR inhibitor = 6%

(listing goes on)
cpd	smiles	VDR inhibitor
106	Cc1nn(C)c(C(=O)NC(=S)Nc2ccc([N+](=O)[O-])cc2)c1Cl	12%
107	COCCn1c(=O)c(-c2cccc(C#N)c2)nc2cnc(OC)nc21	5%
108	COC(=O)c1cc(C(=O)OC)n(Cc2ccc(F)cc2)n1	15%
109	OC(CN1CCCCC1)Cn1c2ccc(Cl)cc2c2cc(Cl)ccc21 (configuration not stated)	-11%
110	Cc1ccc(NC(=O)COC(=O)CCc2c[nH]c3ccccc23)c(C)c1	6%
111	Cc1c(C(=O)N2CCN(CCc3ccccc3)CC2)oc2ccccc12	11%
112	COc1ccc(N(CC(=O)Nc2ccc(C(N)=O)cc2)S(=O)(=O)c2ccc(C)c([N+](=O)[O-])c2)cc1	5%
113	COC(=O)c1ccc(/C=N/NC(=O)CC(=O)NCc2cccnc2)cc1	-10%
114	CC(=O)Nc1cccc(NC(=O)COC(=O)CO/N=C(\C)c2ccc3c(c2)OCO3)c1	-2%
115	Cc1ccc(C)n1-n1cnc2sc3c(c2c1=O)CCC3	0%
116	COc1ccc(NC(=O)Cn2c(=O)n(Cc3ccco3)c(=O)c3sc4ccccc4c32)cc1OC	-7%
117	CCc1ccccc1NC(=O)COc1ccc2oc(-c3ccc(OC)cc3)cc(=O)c2c1	-1%
118	CC(C)c1ccc(C(CC(=O)O)NC(=O)c2cccs2)cc1 (configuration not stated)	-16%
119	O=C(CN1CCCCCC1)Nc1ccccc1Oc1ccccc1	-11%
120	COc1ccc(C(=O)NCc2nnc(SCC(=O)c3ccccc3)n2C)cc1OC	-1%

More records follow:
cpd	smiles	VDR inhibitor
121	CCn1c(SCC(=O)N(C)C)nc2cc(S(=O)(=O)N3CCOCC3)ccc21	2%
122	O=c1oc2ccccc2cc1O	8%
123	O=C(c1noc2c1CCCC2)N1CCOCC1	5%
124	Cc1ccc2c(c1)C(c1ccccc1)N(C(=O)c1ccc3c(c1)OCO3)CC(=O)N2 (configuration not stated)	5%
125	COc1ccc(S(=O)(=O)N2CCCOC2CNC(=O)C(=O)NCCCn2ccnc2)cc1OC (configuration not stated)	-9%
126	CCOCCCNC(=O)C(c1ccccc1)N(Cc1cccs1)C(=O)CNC(C)=O (configuration not stated)	-20%
